gsp antag: antagonists of gsp mutant (McCune-Albright syndrome). Potency, µM (highest dose often 76.9 µM), for inactives: at the top dose activity change, negative = inhibition, most hits filed as inhibitors. hit rate 0.4% among 340,000. gsp-mutant cells, cAMP HTRF, 30 min; control for the full effect not named in the record; active = falling curve of any shape with a large fitted effect; inconclusive = falling curve, mostly with a smaller effect; inactive = flat or rising curve; cell line not stated here;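 also: intracellular cAMP measured with PDE inhibitor Ro 20-1724 present during compound exposure; potency is read from the fitted curve at half-maximal effect; % is scaled to controls: 0 for no effect and ±100 for the full control effect; nearly all actives have a fitted effect of over 65% in size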
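HTRF cAMP measurement after 30 min RT detection following 30 min, 37C compound treatment alongside […] (added as 300 uM solution) in G418-selected cells seeded at 2000/well and grown 16–24 h.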
TRPML1 ag: agonists of human TRPML1 channel; Q9GZU1; TRPML1-expressing cells, Ca2+ dye fluorescence, FDSS; host cell line not named in the record; reference of the full effect not given here; activation, % (no concentration beside the values); hit rate 0.12% among 410,000; AID 624414; in the data active = activation above about 50%; inconclusive = about 30% to 50%; inactive = below about 30%; also: 0% is about no effect; the text of the record puts the active cut at 80%
Target sequence (Q9GZU1 whole entry, looked up): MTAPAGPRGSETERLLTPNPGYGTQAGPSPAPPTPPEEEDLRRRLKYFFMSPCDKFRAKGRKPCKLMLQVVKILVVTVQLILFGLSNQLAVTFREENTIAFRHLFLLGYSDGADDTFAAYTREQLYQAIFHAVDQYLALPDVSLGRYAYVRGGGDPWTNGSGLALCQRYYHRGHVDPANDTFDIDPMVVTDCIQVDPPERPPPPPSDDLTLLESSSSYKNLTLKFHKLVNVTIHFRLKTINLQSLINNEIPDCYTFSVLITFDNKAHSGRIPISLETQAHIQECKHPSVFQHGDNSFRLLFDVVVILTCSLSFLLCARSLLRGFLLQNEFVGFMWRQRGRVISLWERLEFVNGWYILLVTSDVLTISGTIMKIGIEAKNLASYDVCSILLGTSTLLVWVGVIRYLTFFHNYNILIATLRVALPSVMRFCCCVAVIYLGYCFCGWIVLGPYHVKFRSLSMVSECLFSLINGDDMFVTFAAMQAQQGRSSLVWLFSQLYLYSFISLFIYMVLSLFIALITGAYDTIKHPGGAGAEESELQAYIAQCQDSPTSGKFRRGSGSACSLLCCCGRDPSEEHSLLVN
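Agonist activity was taken from a 110 s kinetic Ca2+ dye read on the FDSS after pinning compounds onto TRPML1-DL cells. The cells were seeded at 1,500/well with Tet inducer, incubated about 16 h, then dye-loaded at room temperature.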
Menin-MLL FL inh: inhibitors of human menin-MLL interaction, wild-type MLL peptide. Fluorescence polarization, fluorescein-MLL peptide displacement from menin. FP activity change, % at 61.4 µM. 290,000 tested, under 10 active. AID 1766; inconclusive = falling polarisation curve, or a change in total fluorescence; inactive = total fluorescence flat and polarisation flat or rising; no compound was filed as active; the % refers to the polarisation; negative = inhibition;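 also: % of control where 0% means no effect; inhibitors lower the polarisation; unlabelled MLL peptide was the positive control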
ClpP mod: qHTS Assay for Activators of ClpP; ATP-dependent Clp protease proteolytic subunit (Bacillus subtilis (strain 168)), P80244; purified B. subtilis ClpP, FRET peptide cleavage, 20 min; Potency, µM (series often up to 57.5 µM), without a hit: at the highest dose activity change, negative = active; hit rate 1.9% among 340,000; active = well fitted falling curve with a large enough effect; inconclusive = small, poorly fitted or top-dose-only effect; inactive = no such curve, though single readings can be large or run the other way; also: potency is read from the fitted curve at half-maximal effect; the source files actives as falling curves though it sought activators and does not explain the sign; nearly all actives have a fitted effect of over 65% in size; many hits overshoot -100%
Target sequence (P80244 whole entry, looked up): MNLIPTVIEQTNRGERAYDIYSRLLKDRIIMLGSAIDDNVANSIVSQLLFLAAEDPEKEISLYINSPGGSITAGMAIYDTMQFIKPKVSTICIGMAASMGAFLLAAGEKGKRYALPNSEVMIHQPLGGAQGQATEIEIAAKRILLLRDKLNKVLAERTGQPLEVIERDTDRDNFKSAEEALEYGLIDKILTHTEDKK
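ClpP 10 microg/mL final, pH 8 Tris/KCl buffer with BSA, glycerol, Tween-20; compound pinned in; FRET-FV substrate; RT 20 min; Ex320/Em430; ΔFRET vs ADEP 5.8 microM, DMSO, no enzyme.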
TRPML1 inh: blocks the human TRPML1 channel; hit rate 0.02% among 390,000; activity change, negative = inhibition, % (concentration not given with the values); TRPML1-inducible cells, Ca2+ dye fluorescence, FDSS; stronger effect = lower value; inhibition of EC80 agonist-evoked calcium signal; in the data active means activity change below about -50%; inconclusive means about -30% to -50%; inactive means above about -30%;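 also: stimulus is agonist 54-4 at its EC80 concentration; % is scaled to controls: 0 for no effect and ±100 for the full control effect; compound concentration not given in the record; the text of the record puts the active cut at -80%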
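TRPML1-DL cells, Tet-induced overnight (~16 h, 37 °C) at 1,500 cells/well, were loaded with Ca8 no-wash dye plus quencher for 45-90 min at room temperature. Compounds were pinned during FDSS kinetic reading; agonist 54-4 at EC80 (4 uM final) then added.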
gsp agonist: activates gsp, the McCune-Albright syndrome mutation | Potency, µM (doses to about 76.9 µM), without a hit: at the top dose activation (cAMP increase), most hits filed as activators | AID 624287 | gsp mutant cells, cAMP HTRF, 30 min; control for the full effect not named in the record | hit rate 0.13% among 340,000; active = well fitted activation curve with a large enough effect; inconclusive = small, poorly fitted or top-dose-only effect, or another doubt; inactive = no such curve, though single readings can be large or run the other way; cell line not stated here;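 also: phosphodiesterase inhibitor Ro 20-1724 added with compounds to block cAMP breakdown; potency is read from the fitted curve at half-maximal effect; nearly all actives have a fitted effect of over 60% in size; about a fifth of the inactives were tested at one dose only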
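Cells in DMEM/10% FBS with G418 were pretreated with compounds in DMSO plus […] (300 uM stock) for 30 min at 37C. cAMP was measured by HTRF (cAMP-d2 plus anti-cAMP antibody-K) after 30 min at room temperature.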
Active calls of the source: *; ? = inconclusive; · = no result given; [ ] = dose if it differs, or a comment.

Sample of the layout:
SMILES	gsp antag	TRPML1 ag	Menin-MLL FL inh	ClpP mod	TRPML1 inh	gsp agonist
O=c1[nH]c(N/N=C\c2ccc3c(c2)OCO3)nc2ccccc12	-2%	-0.5	5.8	·	-1	25%
Cc1cccc(Cn2cccc2CNS(=O)(=O)c2ccccc2F)c1	·	0.1	·	-2.1%	-3	·

The list itself, from the first entry:
SMILES	gsp antag	TRPML1 ag	Menin-MLL FL inh	ClpP mod	TRPML1 inh	gsp agonist
O=c1[nH]c(N/N=C\c2ccc3c(c2)OCO3)nc2ccccc12	-2%	-0.5	5.8	·	-1	25%
Cc1cccc(Cn2cccc2CNS(=O)(=O)c2ccccc2F)c1	·	0.1	·	-2.1%	-3	·
Cc1c(N)cc2c(c1N)C(C)(C)CC2(C)C	2%	0.1	·	-1.6%	9	-6%
O=C(NCc1ccco1)C(c1ccccc1F)N(Cc1cccnc1)C(=O)Cn1nnc2ccccc21 (stereo not drawn)	1%[15.4 µM]	1.1	-0.3	-3.4%	2	0%
CCOc1ccccc1Nc1nnc(SCC(=O)NCC2CCCO2)s1 (stereo not drawn)	10%	-0.4	·	-3.9%	2	4%[15.4 µM]
Cc1onc(C(=O)NCCc2ccccc2)c1[N+](=O)[O-]	14%	-0.3	-3.8	-0.6%	-2	-9%[15.4 µM]
O=C(CCN1C(=O)S/C(=C\c2ccccc2)C1=O)NC1CCS(=O)(=O)C1 (stereo not drawn)	2%	-0.4	·	0.5%	-6	22%
CCOC(=O)Cc1ccc(NC(=O)N2CCC(CN3CCCCCC3)CC2)cc1	·	1.1	·	-3.7%	1	·
Cc1nc2scc(-c3ccc(Cl)cc3)c2c(=O)o1	?	0.2	9.8	-8.8%	3	?
COc1ccc(OC)c(NC(=O)CSc2n[nH]c(-c3ccccc3Cl)n2)c1	·	0.5	·	-0.4%	-3	·
COc1ccc(CC(=O)OCC(=O)NC(=O)NC2CCCC2)cc1	18%	-0.1	·	0.4%	63	11%
COc1ccccc1CNC(=O)c1cnc2sc(N3CCCCCC3)nn2c1=O	·	0.7	·	14µM*	44	·
Cc1cccc(N2CCN(CC3CCCCC3)CC2)c1C	3%	1.5	-2.1	0.5%	-13	11%
COC(=O)C1=C2SC(C)C(=O)N2C(N)=C(C#N)C1c1ccc(OC)c(OC)c1 (stereo not drawn)	3%	-0.6	7.6	-2.5%	11	-30%[inhibitor]
CCOC(=O)C1CCN(C(=O)Nc2ccc(OCc3ccccc3)cc2)CC1	9%	0.7	2.2	·	1	4%[15.4 µM]
COc1cc(-c2cc(-c3nnco3)c3ccccc3n2)cc(OC)c1OC	-10%	0.9	-0.7	13µM*	12	0%[15.4 µM]
O=C(Nc1nncs1)C1CCCC1	2%	0.5	·	0.0%	-2	5%
O=S(=O)(NCc1ccccc1Cl)c1cnc[nH]1	-12%	-0.4	1.8	-0.5%	3	-5%
CCOc1ccc(/C=N/Nc2nc(N3CCCC3)nc(N3CCCC3)n2)cc1OC	-10%	-0.3	4.1	-4.8%	-6	-3%
CCOC(=O)Nc1cccc(NC(=O)c2ccccc2F)c1	-4%	0.6	0.4	0.7%	-2	-30%
O=C(Nc1cccc(S(=O)(=O)Nc2ccc(Cl)cc2)c1)c1ccc(Cl)nc1	45µM*	4.5	0.8	-2.8%	-11	-42%[inhibitor]
CCOc1ccccc1-n1c(SCC(N)=O)nnc1-c1ccccc1	7%	-0.2	2.7	-1.5%	3	1%
Cc1ccc(S(=O)(=O)N2CCCc3cc(NC(=O)c4ccccc4Cl)ccc32)cc1	·	-0.3	·	-0.9%	79	·
O=C(Nc1ccc(C(=O)N2CCOCC2)cc1)c1cccs1	18%	-0.6	-0.8	0.4%	9	-42%[inhibitor]
CC1CN(S(=O)(=O)c2cc(C(=O)NCCC3=CCCCC3)ccc2Cl)CC(C)O1 (stereo not drawn)	-14%	0.8	·	·	-1	16%[15.4 µM]
Cc1cccc(N2CC(C(=O)Nc3nnc(SCC(=O)NCC4CCCO4)s3)CC2=O)c1 (stereo not drawn)	-9%	0.1	·	?	30	2%[15.4 µM]
Cn1c(Br)nc2c1c(=O)n(Cc1ccccc1)c(=O)n2C	-14%	0.1	1.5	0.3%	1	14%[15.4 µM]
CCOc1ccc(OCCCCn2ccnc2)cc1	13%	-0.1	0.0	-0.5%	-6	-16%
O=C(CSc1cccc(C(F)(F)F)c1)NCc1ccccc1	3%	2.6	4.6	-1.9%	19	1%[15.4 µM]
COC(=O)C1=C(C)N(CCCC(=O)O)C(=O)NC1c1ccc2c(c1)OCO2 (stereo not drawn)	5%	-0.6	·	0.5%	-22	-13%
CCC1(c2ccc(Cl)cc2)NC(=O)N(CC(=O)NC2CCCCCC2)C1=O (stereo not drawn)	2%	0.4	·	-0.9%	13	-6%
FC(F)Sc1ccc(NC(=S)N2CCN(c3ccccn3)CC2)cc1	-15%	0.0	-5.1	·	-24	-3%[15.4 µM]
CC(C)c1nnc(NC(=O)C2CCCN2C(=O)Nc2ccccc2[N+](=O)[O-])s1 (stereo not drawn)	8%	·	-11	-0.6%	·	17%
CCCCC(=O)N1c2ccccc2C(C)(c2ccccc2)CC1(C)C (stereo not drawn)	·	2.4	·	0.8%	13	·
O=C(Nc1ccccc1Cl)C1C(c2ccccc2)C1(Cl)Cl (stereo not drawn)	?	1.7	-6.3	0.3%	-5	0%
O=C(CSc1ncnc2c1oc1ccccc12)Nc1ccccc1F	26%	-0.9	1.1	3.3%	-8	?
COc1ccc(CC(=O)NCc2ccc3c(c2)CCN3C(C)=O)cc1OC	·	0.8	·	-2.2%	4	·
Cc1c(Cl)c([N+](=O)[O-])nn1CCCC(=O)Nc1cccc(O)c1	-1%	-0.6	1.6	·	-15	11%
COc1ccc(N(C(C)C(=O)Nc2ccc(S(=O)(=O)N3CCOCC3)cc2)S(C)(=O)=O)cc1 (stereo not drawn)	-13%	-0.5	-3.5	·	6	-4%[15.4 µM]
CCSc1ccc2nnc(-c3cccc(F)c3)n2n1	-10%	2.1	-1.4	-16%	-15	?
Cn1c(=O)cc(SCC(=O)Nc2ccc3c(c2)OCO3)c2ccccc21	2%	1.3	0.9	-3.9%	34	24%
COC(=O)c1ccc(NC(=S)NCCc2ccccc2C)cc1	-20%	1.6	-2.1	3.4%	10	1%
CCN(CC)S(=O)(=O)c1ccc(NC(=O)CCC2CCCCC2)cc1	-17%	-0.3	4.0	-0.5%	-2	-90%[inhibitor]
COc1cccc(NC(=O)CNC(=O)c2ccc(C)cc2)c1	12%	1.7	-4.4	-0.2%	9	0%
CSc1nc2nc(Cl)c(Cl)nc2[nH]1	·	-0.3	·	4.0%	8	35%
CCCC(=O)N/C(N)=N/c1nc2ccccc2o1	1%	-0.3	5.4	0.0%	20	6%[15.4 µM]
COCCN1CCN(Cc2cn[nH]c2-c2cc3ccccc3o2)CC1	6%	0.3	-5.8	-3.1%	-19	-14%
C=CCN(c1ccc(OC)cc1)S(=O)(=O)c1ccc(Cl)c(C(=O)OCC(=O)NC2CC2)c1	-22%	0.7	-3.7	·	10	-16%[15.4 µM]
COc1ccc(OC)c(/C=C2/Sc3ccccc3C2=O)c1	3%	54*	?	·	-12	-6%[15.4 µM]
C/C(=N\NC(=O)C1CC1)c1ccccc1Br	5%	-0.5	-1.0	0.8%	4	18%
Cc1c(O)c(CN2CCCCC2)cc2c1oc(=O)c1ccccc12	-6%	-0.5	2.2	-9.5%	2	-2%
C=CCN1C(=NC(=O)CCC(=O)O)SC2CS(=O)(=O)CC21 (stereo not drawn)	3%	-1.2	-0.9	0.6%	6	-15%
COc1cc(NC(=O)CNc2ccc(Cl)c(S(=O)(=O)N3CCOCC3)c2)cc(OC)c1	-14%	-0.2	·	-4.1%	21	-20%
O=C(Cn1nc(Cc2cccnc2)c2ccccc2c1=O)NCc1ccc2c(c1)OCO2	-3%	0.7	0.1	-1.4%	11	22%
CCOc1cc(C(=O)N=c2sccn2C)cc(Br)c1OC	-15%	-0.4	2.0	-2.2%	5	?
CCCn1c2ccccc2c2cnn(CC(=O)N3CCOCC3)c(=O)c21	3%	-1.0	·	4.3%	-17	-6%
O=[N+]([O-])c1ccc(Cl)c(CN2CCN(c3ncccn3)CC2)c1	0%	-0.3	-1.0	-6.6%	9	3%[15.4 µM]
O=C(Nc1ccc(S(=O)(=O)N2CCCC2)cc1)c1c(F)cccc1F	2%	-0.4	·	0.5%	1	-28%
CCC(=O)N1CCN(c2ccc(NC(=O)c3ccccc3)cc2)CC1	-8%	-0.7	1.9	-7.4%	-9	22%
COC(=O)c1cc(C(=O)NNC(=O)c2ccc3c(c2)OCO3)cc([N+](=O)[O-])c1	3%	0.3	·	-3.0%	-7	-28%

Next section.
SMILES	gsp antag	TRPML1 ag	Menin-MLL FL inh	ClpP mod	TRPML1 inh	gsp agonist
Cc1cccc(OCC(=O)N/N=C/C=C/c2ccco2)c1	2%	-0.7	?	-0.2%	25	-18%
COc1cccc(-c2cc(C(=O)N3CCc4ccccc4C3)[nH]n2)c1	2%	-0.3	5.0	1.6%	33	-35%[inhibitor]
Cc1c(NC(=O)c2cc3ccccc3o2)cccc1-c1nc2ccccc2o1	·	0.2	·	-20%	-11	·
CC1(C)C2CCC(C2)C1(C)NC(=O)CNC1CCCCC1 (stereo not drawn)	6%	·	-0.9	-1.1%	·	-6%
CCN1CCN(c2ncc(C(=O)Nc3cc(Cl)ccc3OC)c3ccccc23)CC1	-1%	2.1	3.8	-3.1%	8	1%[15.4 µM]
COc1ccc(S(=O)(=O)N(CC(=O)NCc2ccccc2OC)c2ccc(C)cc2)cc1	·	3.6	·	-2.4%	-16	·
O=C(NNc1ccc(Cl)cc1)c1c(F)cccc1Cl	13%	-0.2	0.3	-0.3%	2	-2%[15.4 µM]
COc1ccc(Cn2c(SCc3ccc(C(=O)NCc4cccs4)cc3)nc3cccnc32)cc1	·	2.2	·	28µM*	-9	·
Cc1ccc2nc(-c3ccccc3)c(CC3CCCCC3)n2c1	·	1.0	·	-17%	-6	·
COc1cc(/C=C2/CCC/C(=C\c3cc(O)c(OC)c(Cl)c3)C2=O)cc(Cl)c1O	-27%	4.5	?	2.8%	14	?
CCN(C(=O)CSc1nc(N)cc(N)n1)C1CCS(=O)(=O)C1 (stereo not drawn)	-2%	0.3	·	?	14	26%
COc1ccc(NC(=O)CCNC(=O)N2CC(=O)Nc3ccccc32)cc1	·	-0.1	·	-1.6%	-6	-20%
CCc1cccc(NC(=O)C2CCCN(S(=O)(=O)c3cnc[nH]3)C2)c1 (stereo not drawn)	-3%	-0.1	·	1.3%	8	?
COc1ccc(N(C(=O)c2ccc(Cl)cc2)S(=O)(=O)c2ccc(C)cc2)cc1	·	0.6	·	0.5%	35	·
CCOc1ccc(C(=O)NCC(=O)OCCCC(=O)c2ccc(F)cc2)cc1OCC	-8%	-0.4	·	-2.9%	-8	-35%[inhibitor]

Screens deposited in PubChem BioAssay by National Center for Advancing Translational Sciences (NCATS).
